Assay outcomes: PubChem, several laboratories
Sa RN4220 lethal: kills Staphylococcus aureus RN4220. S. aureus RN4220 growth, OD600, 16 h. inhibition, % (concentration not given with the values). 0.33% of 330,000 active. AID 1259311;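 active = z-score of -3 or lower and OD600 up to 0.18 on both plates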;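 also: plate controls were untreated cells for no effect and reference antibiotic for full effect; stock transfer was 100 nL into about 80 µL; one replicate is shown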
Mtb hypoxia inh: inhibitors of hypoxia-regulated fluorescent reporter in Mycobacterium tuberculosis; M. tuberculosis hypoxia-regulated fluorescent reporter, fluorescence; fluorescence inhibition, % (no concentration beside the values); 0.1% of 300,000 active;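 active = 35 to 45% if threefold the growth effect, above 45% if 1.5-fold the growth effect; inactive = the rest, general growth blockers included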;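 also: wells of about 50 µL received 100 nL stock; 0% = vehicle wells and 100% = reference inhibitor wells; whole bacteria with a GFP reporter of the hypoxia response; strong numbers were not always called active; many hits fall short of the cut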
PrP UTR inh: inhibition of PrP 5' UTR reporter expression; 0.35% of 340,000 active; inhibition, % (no concentration beside the values); cell-based PrP 5' UTR mRNA reporter, plate reader;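 active = every replicate at 50% or more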;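 also: 0 = median of the neutral control wells; tested in H4 reporter cells; numbers are from one replicate; inactives centre near -14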
Sa ugtP lethal: kills S. aureus RN4220 lacking UgtP. S. aureus RN4220 ugtP deletion, OD600 growth, 16 h; some inactives read as strong as hits. growth inhibition, % (no concentration beside the values). 0.54% of 330,000 active;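 active = z-score under -3 and OD600 up to 0.15 on both plates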;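 also: plate controls were untreated wells for no effect and antibiotic for full effect; wells of about 80 µL received 100 nL stock; the first replicate is given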
BJeLR viability: BJeLR cell viability loss; 0.17% of 300,000 active; BJeLR (HRASV12) viability, CellTiter-Glo ATP luminescence, 48 h; reference of the scale not given here; AID 1554; inhibition, % (no concentration beside the values);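 active = replicate mean above 50%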;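 also: 50 nL library stock added to about 25 µL; numbers are from one replicate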
Autofluor counter: compound fluorescence in toxin protease inhibitor counterscreen. compound autofluorescence counterscreen, microsphere flow cytometry; stronger effect = higher value. fluorescence intensity (test concentration not listed). 3.1% of 360,000 active. AID 624483;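 active = at least 3 SD above the mean of all compounds, about 16000 in these data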;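 also: 100 nL of 1 mM stock went into each well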
Mtb hypoxia inh growth: recorded beside Mtb hypoxia inh, whose call it bears; growth inhibition, %; measured here: M. tuberculosis growth (absorbance);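 0% = vehicle and 100% = reference antibiotic; read after six days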
Active calls of the source: *; x = no result given.

entry | Molecule | Sa RN4220 lethal | Mtb hypoxia inh | Mtb hypoxia inh growth | PrP UTR inh | Sa ugtP lethal | BJeLR viability | Autofluor counter
1 | O=S(=O)(/C=C/c1cccc(Br)c1)N1CCOCC1 | -1.9 | 4 | 7 | -18 | -2 | -2 | 5620
2 | CC(C)CNC(=O)N1c2ccccc2Sc2ccccc21 | 2.2 | 14 | 21 | -30 | 6 | -1 | 4563
3 | COc1cc(OC)cc(C(=O)NCC(=O)OCC(=O)c2cc(OC)ccc2OC)c1 | 2.3 | 2 | 2 | -36 | 8 | 3 | 7914
4 | CC(=O)Nc1ccc(S(=O)(=O)N(C)C2CCN(C)CC2)cc1 | 3.6 | 13 | 1 | -4 | 9 | -8 | 4035
5 | Cc1ccccc1OC(C)C(=O)Nc1ccc2c(c1)OCO2 (centres undefined) | 3.2 | 11 | -9 | -7 | 5 | -3 | 5537
6 | COc1cccc(N2CCN(C(=O)c3cc4c(s3)-c3ccccc3OC4)CC2)c1 | -8.8 | 13 | 8 | -38 | -5 | -6 | 5394
7 | CC(C)(C)NC(=O)COC(=O)c1ccccc1C(=O)c1ccccc1 | 3.6 | 9 | 14 | -1 | 5 | 1 | 4136
8 | Cc1ccc(NC(=O)C(Cc2ccccc2)NC(=O)c2ccco2)cc1 (centres undefined) | -0.7 | -1 | 1 | -51 | 0 | -10 | 23460*
9 | COc1cccc(NS(=O)(=O)c2ccc(NC(C)=O)cc2)c1 | 7.0 | 6 | 13 | -2 | -8 | -6 | 23977*
10 | Cc1ccc(S(=O)(=O)NCC2CCC(C(=O)NCCCOC(C)C)CC2)cc1 (centres undefined) | 5.4 | 9 | 4 | x | 4 | 5 | x
11 | CCOC(=O)C1CCCN(S(=O)(=O)c2cnc(Cl)c(Br)c2)C1 (centres undefined) | 3.6 | 9 | 2 | 3 | 3 | 2 | 4244
12 | O=c1c2[nH]cnc2n(-c2ccccc2)c(=O)n1Cc1ccccc1 | 1.1 | -2 | 2 | 0 | -3 | -4 | 3600
13 | O=C(NC1CC1)c1ccc(F)cc1Cl | 1.2 | 7 | 7 | -7 | 1 | -4 | 2915
14 | COc1ccc(NC(=O)CSCC(=O)Oc2c(OC)cccc2OC)cc1 | 1.6 | 12 | -2 | -23 | 8 | 5 | 5340
15 | COc1cc(C=NNC(=O)c2c(C)nnn2-c2nonc2N)ccc1O | 3.9 | 13 | 1 | x | -2 | x | x
16 | COc1cccc(CNc2ccc3c(c2)ncn3C(C)C)c1OC | 4.4 | -10 | -3 | -59 | 10 | -3 | 4437
17 | CCCCCc1ccc(-c2cn(Cc3ccc(C(=O)c4ccccc4)cc3)nn2)cc1 | -15 | 6 | 6 | -31 | -2 | 3 | 4074
18 | CCO[C@H]1OC(C(=O)Nc2ccccc2)=C[C@@H](c2ccc(Br)cc2)[C@@H]1CCCO | x | x | x | -14 | x | -11 | 3845
19 | CSc1ccccc1NC(=O)CSc1nncs1 | 2.1 | 18 | 5 | -56 | 9 | 8 | 4739
20 | COc1ccc(CCN(C)C(=O)c2cccc(S(=O)(=O)NCc3ccccc3)c2)cc1OC | 4.4 | 3 | -6 | -4 | 1 | -8 | 5809
21 | COc1ccc(COn2c(=O)c(C)[n+]([O-])c3ccccc32)cc1OC | 4.7 | 7 | 6 | -9 | 5 | -2 | 3958
22 | CCN(CC)c1ccc(/C=C/c2ccc3ccc(OC)cc3[n+]2CC)cc1 | 100* | x | x | 2 | 99* | 43 | 3250
23 | O=C(N/N=C/c1c[nH]c2ccccc12)c1cc2ccccc2o1 | x | x | x | -27 | x | -13 | 3988
24 | CC(NC(=S)Nc1ccc(F)cc1)c1ccccc1 (centres undefined) | 2.2 | 13 | 9 | -7 | 9 | 1 | 3415
25 | CC(C)Nc1nc(NC(N)=S)nc(NC(C)(C)C)n1 | 7.8 | -6 | 6 | -30 | -5 | 0 | 3368
26 | O=C1CN(Cc2ccccc2)C(=NCc2ccco2)S1 | 1.5 | 16 | 3 | -10 | 5 | -1 | 4630
27 | O=C(Nc1ccccc1)N(CCCN1CCOCC1)Cc1cc2cc3c(cc2[nH]c1=O)OCCO3 | 4.3 | 1 | 10 | -35 | 12 | 2 | 2776
28 | COc1ccc(-c2nnc(SCC(=O)N3CCCC3)o2)c(OC)c1 | 4.2 | 19 | 4 | -31 | 2 | 4 | 5873
29 | Cc1ccc(S(=O)(=O)N[C@@H](C)C(=O)N2CCC(C(=O)N3CCC[C@H]3C(=O)O)CC2)cc1 | -0.3 | 4 | 5 | 3 | 10 | 6 | 2361
30 | CC(/C=N/NC(=O)c1cc(-c2ccc(Cl)cc2)nc2ccccc12)=C\c1ccco1 | x | x | x | -14 | x | 35 | 4617
31 | CCN(C(=O)COC(=O)CSc1ccc([N+](=O)[O-])cc1)C1CCS(=O)(=O)C1 (centres undefined) | -3.1 | -6 | 0 | -3 | -3 | 12 | 5478
32 | O=C(COc1cccc([N+](=O)[O-])c1)N/N=C/c1ccco1 | x | x | x | -17 | x | -10 | 3372
33 | COc1cc(C)ccc1S(=O)(=O)N1CCCCCC1 | 4.3 | 16 | 13 | -21 | 1 | 5 | 4148
34 | C=CCNC(=S)/N=c1/ccccn1Cc1ccccc1 | x | x | x | -2 | x | -10 | 3045
35 | Cc1c(C(=O)N2CCc3ccccc3C2)sc2nc(-c3ccccc3)cn12 | 6.0 | -5 | 3 | -21 | -11 | -7 | 9924
36 | O=C(NOC(=O)c1cc(Br)ccc1Cl)c1cccs1 | 1.0 | x | x | 3 | 15 | -3 | 3422
37 | CC1CCc2c(nc3sc4c(c3c2N)CCCC4)C1 (centres undefined) | 5.3 | x | x | -109 | -3 | -7 | 2372
38 | COc1cccc(Cn2c(Oc3cccc(C)c3)nc3c2c(=O)n(C)c(=O)n3C)c1 | 5.1 | x | x | -12 | -13 | 4 | 2367
39 | Cc1ccc(NC(=O)c2ccc([N+](=O)[O-])cc2Cl)nc1 | 0.0 | 8 | 11 | -51 | 3 | 1 | 2072
40 | COc1ccccc1OCCOc1ccc(/C=N/n2cnnc2)cc1 | x | x | x | -21 | x | 12 | 3093
41 | Oc1ccc2ccccc2c1CN1CC2CCC(CC2)C1 | 5.0 | 18 | 6 | -6 | 7 | x | 3919
42 | Cc1ccc(NC(=O)C2CCN(S(=O)(=O)c3ccc(N4CCCC4=O)cc3)CC2)cc1Cl | x | x | x | -27 | x | 14 | 5582
43 | CN(C)C(CNC(=O)Cc1c(Cl)cccc1Cl)c1ccccc1 (centres undefined) | 5.2 | 4 | 0 | 3 | -2 | -1 | 3316
44 | CCOC(=O)C1=C(C)C(c2ccc(OC)cc2)NC(=S)N1 (centres undefined) | 3.6 | 7 | 3 | -24 | 4 | -3 | 8345
45 | Cc1ccc(S(=O)(=O)/N=S(\C)CC2CC2(Cl)Cl)cc1 (centres undefined) | 2.0 | 1 | 7 | -18 | 5 | -2 | 11534
46 | Cc1ccc(OCC(=O)NN=Cc2cn(C)c3ccccc23)cc1 | 0.9 | -5 | 8 | x | 5 | x | x
47 | COC(=O)c1sc(C(C)(C)C)cc1CSc1ccccc1 | 3.9 | 14 | 6 | -27 | 84* | -9 | 3931
48 | Nc1nc(SCc2ccccc2Cl)nc2nc3c(cc12)CCCC3 | 3.5 | -5 | 7 | -1 | 13 | -4 | 11439
49 | COC(=O)C1c2ccccc2-c2ccccc21 | 4.4 | -9 | 1 | -21 | 0 | x | 2460
50 | O=C(CSc1nc2ccccc2c(=O)n1-c1ccccc1)N1CCCc2ccccc21 | x | x | x | -14 | x | 8 | 1988
51 | O=C(O)c1oc2ccccc2c1-n1cccc1 | 8.1 | 10 | 6 | -12 | 5 | 2 | 16703*
52 | COc1ccc(F)cc1C(=O)C1CCCN(Cc2cn(C)c3ccccc23)C1 (centres undefined) | -4.5 | -8 | 3 | -11 | -6 | 1 | 2076
53 | COc1ccc(C)cc1S(=O)(=O)NNc1nc(C)cc(C)n1 | 1.9 | 12 | 3 | -29 | 3 | x | 2918
54 | CCCCn1c(N)c(N(C(=O)CSc2nnnn2-c2ccccc2C)C2CCCC2)c(=O)[nH]c1=O | 3.7 | -5 | -9 | -16 | 12 | x | x
55 | COC(=O)c1cc(OC)c(OC)cc1NC(=S)N1CCN(Cc2ccccc2)CC1 | 5.3 | 0 | 1 | -18 | -1 | 2 | 12152
56 | CCOc1ccc2[nH]c3c(NCC(C)C)ncnc3c2c1 | -0.1 | 5 | 6 | -19 | -3 | 9 | 4836
57 | CC(=NCC1CCCO1)c1c(O)n(C)c(=O)n(C)c1=O (centres undefined) | 4.0 | 5 | 6 | -4 | -8 | 2 | 20914*
58 | Clc1ncn(CCOc2ccccc2)c1Cl | 5.8 | 1 | 5 | -33 | 0 | -10 | 3987
59 | CCN(CC)C(=O)Cn1cc(C(=O)C(=O)NCCCn2ccnc2)c2ccccc21 | 0.9 | 5 | 0 | 22 | 13 | -11 | 3853
60 | Cc1nc2cc(Cl)ccc2n1-c1ccccc1 | -5.0 | 21 | 17 | -30 | 21 | 4 | 4201

(more compounds)
entry | Molecule | Sa RN4220 lethal | Mtb hypoxia inh | Mtb hypoxia inh growth | PrP UTR inh | Sa ugtP lethal | BJeLR viability | Autofluor counter
61 | Cc1nn(-c2ccccc2)c2[nH]c(C(F)(F)F)cc(=O)c12 | 17 | x | x | -11 | 27 | 1 | 4596
62 | c1ccc(-c2ccncc2)cc1 | 3.3 | x | x | -9 | -1 | x | 5835
63 | O=C(COC(=O)Cc1c[nH]c2ccccc12)NC1CCCCC1 | 10 | 14 | 7 | -26 | -3 | -4 | 4523
64 | Cc1ccc(Cn2ccsc2=NC(=O)COC(=O)c2ccc(O)cc2O)cc1 | 1.4 | 10 | 2 | -61 | 3 | 1 | 6686
65 | FC(F)(F)c1nnc2ccc(N3CCCCCC3)nn12 | -2.9 | x | x | -17 | 2 | x | 2420
66 | CCOC(=O)C1CCCN(c2c(N3CCN(c4ccccn4)CC3)c(=O)c2=O)C1 (centres undefined) | 6.5 | x | x | -29 | 1 | x | 3964
67 | COc1c(Br)cc(Br)cc1C=Nn1c(C)nnc1C | 2.4 | 5 | 7 | x | -7 | x | x
68 | COc1cc2cc(C(=O)NN=Cc3ccccc3Cl)[nH]c2cc1OC | 9.7 | 1 | -5 | x | -11 | x | x
69 | COc1ccc(NC(=S)NC(=O)c2cc3ccccc3o2)c(OC)c1 | 1.9 | 3 | 2 | -21 | 5 | -4 | 5682
70 | O=C(Cc1ccc(Cl)cc1)NCCCNC(=O)c1cccnc1 | -1.5 | -5 | -10 | -8 | 11 | 4 | 3969
71 | Oc1ccccc1CN1CCCN(Cc2ccccc2O)C1 | 0.5 | 9 | 8 | -15 | 2 | -1 | 10178
72 | Cc1nn(-c2ccccc2)c(Cl)c1C=NNC(=O)OC(C)(C)C | 2.1 | 5 | 7 | x | 10 | x | x
73 | COc1ccc(CCN(C(=O)C(F)(F)F)C(C(=O)NC2CCCCC2)c2cccs2)cc1 (centres undefined) | -3.1 | 14 | 3 | -16 | -4 | -2 | 2121
74 | COc1ccc(N2C(=O)C(CC(=O)Nc3ccc(F)cc3)N(CCc3ccc(OC)c(OC)c3)C2=O)cc1 (centres undefined) | 0.4 | 10 | 6 | -19 | 10 | -1 | 2342
75 | O=C(NCC1CCCO1)C1c2ccccc2Oc2ccccc21 (centres undefined) | 5.8 | 12 | 1 | -5 | 11 | 1 | 4695
76 | O=C(CN1CCN(S(=O)(=O)c2ccc(F)c(Cl)c2)CC1)N1CCOCC1 | 3.7 | 10 | 5 | -16 | 3 | x | 3769
77 | O=C(Nc1cc(Cl)ccc1Cl)c1ccc(OC(=O)c2ccco2)cc1 | 0.6 | 10 | 7 | -64 | 10 | 7 | 8012
78 | CC(C)CCN1CCN(CC#Cc2ccccc2)CC1CCO (centres undefined) | 2.6 | 7 | 6 | -14 | 5 | -4 | 2669
79 | COc1ccc(N2CCN(CCNS(=O)(=O)c3ccc(C)cc3)CC2)cc1 | 2.0 | 9 | 0 | 11 | 5 | -4 | 3044

Full records as entered above. Screens in order: Sa RN4220 lethal	Mtb hypoxia inh	Mtb hypoxia inh growth	PrP UTR inh	Sa ugtP lethal	BJeLR viability	Autofluor counter
O=C(CN1CCN(S(=O)(=O)c2ccc(F)c(Cl)c2)CC1)N1CCOCC1 is listed as 3.7	10	5	-16	3	x	3769
O=C(Nc1cc(Cl)ccc1Cl)c1ccc(OC(=O)c2ccco2)cc1 is listed as 0.6	10	7	-64	10	7	8012
COc1ccc(N2C(=O)C(CC(=O)Nc3ccc(F)cc3)N(CCc3ccc(OC)c(OC)c3)C2=O)cc1 (centres undefined) is listed as 0.4	10	6	-19	10	-1	2342
COc1ccc(N2CCN(CCNS(=O)(=O)c3ccc(C)cc3)CC2)cc1 is listed as 2.0	9	0	11	5	-4	3044
